Bioassay records: PubChem, National Center for Advancing Translational Sciences (NCATS)
VDR inh: inhibitors of human vitamin D receptor | P11473 | VDR-SRC2-3 peptide fluorescence polarization, 2 h | Potency, µM, inactives show max response, negative = inhibition, most hits filed as inhibitors | actives 0.93% (n = 400,000) | AID 504847; active = well fitted inhibition curve with a large enough effect; inconclusive = small, poorly fitted or top-dose-only effect, or another doubt; inactive = no such curve, though single readings can be large or run the other way; also: series mostly up to about 120 µM
Target sequence (P11473 whole entry, looked up): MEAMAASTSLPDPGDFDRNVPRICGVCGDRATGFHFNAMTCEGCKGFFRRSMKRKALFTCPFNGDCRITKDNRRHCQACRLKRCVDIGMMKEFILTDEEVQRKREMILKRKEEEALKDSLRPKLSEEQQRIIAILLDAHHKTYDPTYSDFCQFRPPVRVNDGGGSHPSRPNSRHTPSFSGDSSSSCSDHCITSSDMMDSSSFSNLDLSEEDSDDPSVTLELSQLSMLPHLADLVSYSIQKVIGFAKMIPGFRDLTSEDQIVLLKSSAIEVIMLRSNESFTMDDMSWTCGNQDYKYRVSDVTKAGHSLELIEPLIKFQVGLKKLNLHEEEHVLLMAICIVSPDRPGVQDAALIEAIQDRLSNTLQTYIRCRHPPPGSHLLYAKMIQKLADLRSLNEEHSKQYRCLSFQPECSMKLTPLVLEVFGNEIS
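The screen uses fluorescence polarization to detect compounds that interfere with recruitment of the SRC2-3 coactivator peptide to VDR; plates are read after 2 h at room temperature.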
The depositor's hits bear a star; ? = inconclusive; & = joins results of further samples. % is scaled to controls: 0 for no effect and ±100 for the full control effect; potency is read from the fitted curve at half-maximal effect. A portion of the library; rates above refer to the full screens.

SMILES | VDR inh
COc1ccc(NS(=O)(=O)c2ccc(N3CCOCC3)c(NC(=O)/C=C/C(=O)O)c2)cc1 | 1.5%
N#Cc1ccc(OCC(=O)OCC(=O)Nc2ccc(N3CCOCC3)cc2)cc1 | -7.4%
COc1ccc(OCC(=O)NN2Cc3ccccc3C2=N)cc1 | 3.9%
CC(=O)N1CCCc2ccc(NS(=O)(=O)c3ccc(C)cc3)cc21 | -17.1%
S=C(Nc1ccc(Cl)cc1)N(CCCN1CCOCC1)Cc1ccco1 | -22.6%
O=C(NCCN1CCCCCC1)C1CC(=O)N(CCc2ccccc2)C1 (centres undefined) | 5.6%
CCCCC1CCC(C(=O)Nc2ccc(S(=O)(=O)Nc3nccs3)cc2)CC1 (centres undefined) | -2.3%
Cc1ccn2c(C(=O)N/N=C\c3cccs3)c(C)nc2c1 | 13.3%
O=[N+]([O-])c1ccc(N/N=C2\CC3CC=CC23)cc1 (centres undefined) | 24.4%
O=C(CC1C(=O)NCCN1C(=O)Nc1ccccc1)Nc1ccc2c(c1)OCO2 (centres undefined) | 1.5%
Cn1c(=O)c2[nH]c(CCCCc3nc4ccccc4[nH]3)nc2n(C)c1=O | 0.8%
COc1ccc2c(c1)CC/C(=C\c1ccc(OC)c(Cn3nc(C)cc3C)c1)C2=O | -7.6%
BrCCOCCOc1ccc2ccccc2c1 | -4.6%
Cc1ccc(NC(=O)CCn2nc(C)c(S(=O)(=O)N3CCCCC3)c2C)cc1Cl | 8.3%
O=C(NCCCCc1ccccc1)c1ccccc1Cl | -14.8%

Pulled one by one from the entries so far (two):
SMILES | VDR inh
O=[N+]([O-])c1ccc(N/N=C2\CC3CC=CC23)cc1 (centres undefined) | 24.4%
COc1ccc(NS(=O)(=O)c2ccc(N3CCOCC3)c(NC(=O)/C=C/C(=O)O)c2)cc1 | 1.5%

Returning to the listing with the 3 entries that preceded the break.
SMILES | VDR inh
BrCCOCCOc1ccc2ccccc2c1 | -4.6%
Cc1ccc(NC(=O)CCn2nc(C)c(S(=O)(=O)N3CCCCC3)c2C)cc1Cl | 8.3%
O=C(NCCCCc1ccccc1)c1ccccc1Cl | -14.8%
Cc1ccccc1CNC(=O)C(=O)Nc1nccs1 | -13.3%
CC(=O)N1C(=O)NC2=C(C(=O)CCC2)C1c1cccc([N+](=O)[O-])c1 (centres undefined) | -7.1%
O=C(O)c1nnsc1-c1csnn1 | -18.2%
O=C(CNC(=O)c1ccccc1Cl)N/N=C/C=C/c1ccccc1 | 4.9%
CC1=C(C(=O)OCC2CCCO2)C(c2coc3ccccc3c2=O)C2=C(CC(C)(C)CC2=O)N1 (centres undefined) | -9.8%
C=CCN(CC=C)C(=O)c1cccc(OC2CCN(S(=O)(=O)N(C)C)CC2)c1 | -4.9%
Cc1ccc(S(=O)(=O)CC(=O)Nc2ccc(F)c(F)c2F)cc1 | -0.3%
CC1(C)CC(=O)C=C(NC2CC(C)(C)NC(C)(C)C2)C1 | -7.7%
CCN(c1ccccc1)S(=O)(=O)c1ccc(OC)c(NS(=O)(=O)c2cccs2)c1 | -2.9%
Nc1ccc2nc3c(c(Cl)c2c1)CCCC3 | -10.7%
O=C(CN1CCN(c2ccc(F)cc2)CC1)Nc1ccc(F)c(F)c1 | 15.2%
CC(=O)Nc1ccc(Br)cc1C(=O)C(=O)O | -9.4%
COc1ccc(C#Cc2ccc3c(c2)c(=O)c2ccccc2n3C)cc1 | -5.8%
O=S(=O)(Nc1nc(-c2sccc2Cl)cs1)c1cc(Cl)ccc1Cl | ?
CC1(C)Cc2ccccc2-c2nc3ccccc3c(=O)n21 | 8.6%
COc1ccc(C(=O)N2CCC[C@@]3(CCN(Cc4ccccc4OC)C3)C2)cc1 | ?
CCn1cnc2c1c(=O)n(CC(=O)NCC(C)C)c(=O)n2Cc1ccccc1 | 21.7%
CC(C)(C)c1cc(C(=O)NCC(=O)OCC(=O)c2cccc([N+](=O)[O-])c2)cc(C(C)(C)C)c1 | 0.3%
COc1ccc(NS(=O)(=O)c2cn(C)cn2)cc1 | -14.9%
CC(CC(=O)NCCc1ccc(Cl)cc1)S(=O)(=O)c1ccc2c(c1)NC(=O)CO2 (centres undefined) | -3.2%
COc1ccccc1-c1ccc2ncnc(NCCNC(C)=O)c2c1 | ?
CC(C)(C)c1nnc(N/N=C/c2ccc(O)cc2)n(N)c1=O | -11.2%
COc1cccc(CN2CC(C(=O)NCCn3cccn3)CCC2=O)c1 (centres undefined) | 18.4%
Cc1c(C(=O)N2CCN(S(=O)(=O)c3ccccc3F)CC2)oc2c(Cl)cccc12 | -20.7%
CCOc1cc(C(=O)NCCc2csc(-c3ccc(C)cc3)n2)cc(OCC)c1OCC | -14.7%
N#Cc1ccncc1Sc1ccc(Cl)cc1 | -18.1%
Cc1nnc(SCc2ccc(Cl)c(Cl)c2)s1 | -9.9%
CCOC(=O)N1CCN(C(=O)c2ccc3c(=O)n(CCOC)c(=O)[nH]c3c2)CC1 | -5.1%
O=[N+]([O-])c1ccc(Oc2ccc(S(=O)(=O)N3CCOCC3)cn2)cc1 | -11.6%
Oc1ccc(N=Nc2cccc(Cl)c2)cc1C=Nc1ccc(N2CCOCC2)cc1 | -8.4%
COc1ccccc1CNC(=O)COc1ccccc1OC | 11.0%
COc1ccccc1NS(=O)(=O)c1c(C)nc2sccn2c1=O | 2.0%
O=C(c1ccc(CSc2nc3ccncc3n2Cc2ccccc2F)cc1)N1CCCCCC1 | -1.1%
CCOC(=O)c1cccc(NC(=O)CCOc2ccccc2)c1 | 0.6%
CC1CCN(C(=O)COc2ccc(Nc3ccccc3)cc2)CC1 | -17.8%
Cc1oc2c(CN3CCCC3)c(O)ccc2c(=O)c1-c1ccccc1 | 2.7%
Cc1oc2c(c1C(=O)c1ccc(Cl)cc1)C(=O)C(=O)c1ccccc1-2 | ?
CC12CCC(C(=O)N3CCN(c4ccccc4)CC3)(CC1=O)C2(C)C (centres undefined) | 2.7%
Cc1ccc(CN2CC(C(=O)Nc3cc(S(C)(=O)=O)ccc3Cl)CC2=O)cc1 (centres undefined) | 0.8%
O=C(C1=C(O)C(=O)N(c2ncccn2)C1c1ccc(Cl)c(Cl)c1)c1ccco1 (centres undefined) | ?
CN(Cc1ccccc1)C(=O)c1ccc(NC(=O)Cc2ccc(NC(=O)C3CCCN(C(=O)C4CCCC4)C3)cc2)cc1 (centres undefined) | -11.9%
CCCn1c2c(c(=N)c3c1CCC3)CCCC2 | -23.1%
COc1ccc(S(N)(=O)=O)cc1C(=O)NNC(=O)CN(C)S(=O)(=O)c1ccc(Cl)cc1 | -16.3%
CCOC(=O)c1cc(S(=O)(=O)NCc2ccc(OC)cc2)[nH]n1 | 10.5%
COc1ccc([N+](=O)[O-])cc1NC(=O)CCN1CCN(C)CC1 | 14.3%
O=C(Cc1cccs1)Nc1ccc(N2CCOCC2)cc1 | 10.0%
CN(C)S(=O)(=O)c1cccc(NC(=O)COc2nc3ccccc3nc2N2CCOCC2)c1 | -10.9%
COc1ccc(NC(=S)N/N=C/c2cccn2Cc2ccc(F)cc2)cc1 | -10.7%
CC1CN(c2ccc(NS(=O)(=O)c3ccccc3)cc2C(=O)O)CC(C)O1 (centres undefined) | -25.6%
COc1cccc(-c2nccc(NCCc3c[nH]c4ccc(OC)cc34)n2)c1 | -0.1%
Cc1ccc(NC(=O)c2ccco2)c(NC(=O)COc2ccccc2)c1 | -13.5%
Cc1ccc(CN(C(=O)COc2cccc(C)c2C)C2CCS(=O)(=O)C2)o1 (centres undefined) | 6.9%
COc1cc(C=O)ccc1OCC(=O)Nc1ccc2c(c1)OCO2 | 23.0%
N#CC(C#N)=CN=c1ccn(Cc2ccc(Cl)cc2Cl)cc1 | 3.7%
COC(=O)c1ccc(COc2ccc(NC(C)=O)cc2)o1 | -4.9%
CCOC(=O)c1cnc(C(F)(F)F)nc1Oc1ccccc1 | -10.2%
COc1ccc(/C=C/C(=O)NC(=S)Nc2ccccc2C(=O)NC2CCCCC2)cc1 | -7.0%
CCOC(=O)Cc1csc(NC(=O)c2cnc3sc(C)cn3c2=O)n1 | 13.7%
CC(C)=CCC/C(C)=C/COc1c2occc2cc2ccc(=O)oc12 | -6.8%&-7.3%
COc1cc(NC(=O)CN(c2ccc(C)cc2)S(=O)(=O)c2c(C)n[nH]c2C)cc(OC)c1 | 5.7%
Next records:
SMILES | VDR inh
Cn1c(=O)c2c(nc(N3CCCCC3)n2CC(O)COc2ccccc2)n(C)c1=O (centres undefined) | 5.2%
O=C(Nc1ccccc1)C1CC(=O)N(Cc2ccccc2)C1 (centres undefined) | 4.9%
CC(=O)OCCCNc1cc(Sc2nc3ccccc3s2)c2nonc2c1[N+](=O)[O-] | ?
CCCCOC(=O)c1ccc(NC(=O)/C(C#N)=C/c2ccc(C)o2)cc1 | -1.4%
COc1ccccc1NC(=O)Cn1c(=O)n(-c2ccccc2)c(=O)c2oc3ccccc3c21 | -16.7%
CC(=O)Nc1ccc(Oc2nc(-c3ccccn3)nc3ccccc23)cc1 | -1.0%
CC1Cc2ccccc2N1S(=O)(=O)c1cccc(C(=O)OCC(=O)NC2CCS(=O)(=O)C2)c1 (centres undefined) | 6.2%
c1cnc2c(SCc3ccc(-c4nnco4)cc3)cccc2c1 | 6.7%
O=C(COC(=O)c1ccc(C(F)(F)F)cc1)Nc1cccc(S(=O)(=O)NC2=NCCCCC2)c1 | -5.4%
CCn1c(CN2CCN(C)CC2)nc2cc(NC(=O)c3cc(OC)c(OC)c(OC)c3)ccc21 | 12.6%
COc1cc(/C=N/NC(=O)c2cc(-c3c(C)nn(-c4ccccc4)c3C)n[nH]2)ccc1O | 27.5%
O=C1Nc2cc(C(=O)NCCCN3CCOCC3)ccc2S/C1=C/c1ccccc1F | 18.8%
CCOC(=O)Cn1nc(C)c(-c2ccccc2)c1N | 12.5%
CC(=O)OC1COC(N2CCc3cc([N+](=O)[O-])ccc32)C(OC(C)=O)C1OC(C)=O (centres undefined) | 21.9%
Cc1cc(C)c(NC(=O)c2ccccc2C(=O)c2ccccc2)c(C)c1 | -2.3%
COc1cc(C2C(C(=O)Nc3ccccc3C)=C(C)Nc3nc(SCc4cc(C)ccc4C)nn32)ccc1O (centres undefined) | 8.0%
Nc1ccccc1N=c1ssnc1Cl | ?
O=C(c1scc2c1CCCC2)N1CCOCC1 | -8.8%
O=C(N/N=C/c1cccc2ccccc12)c1cc2ccccc2o1 | ?
COc1ccc(C(=O)Nc2cnc(NC(=O)c3cccs3)cc2C)cc1 | 9.1%
O=S(=O)(c1ccc(Br)cc1)N1CCCN(Cc2ccccc2F)CC1 | -2.1%
Cc1cc(C(=O)N2CCN(c3ccc([N+](=O)[O-])cc3)CC2)co1 | 5.5%
O=C(Nc1nccs1)C1(S(=O)(=O)c2ccc(Cl)cc2)CC1 | -13.8%
O=C(NCc1ccc(C(=O)O)cc1)OCc1ccccc1 | 7.9%
Cc1nonc1-c1ccc2c(c1)OCO2 | 1.0%
Nc1ncnc2c1nc(Sc1ccc(Cl)cc1)n2[C@@H]1O[C@@H]2COP(=O)(O)O[C@H]2[C@H]1O | 0.7%
Cc1[nH]n(C(N)=S)c(=O)c1N=Nc1cc(C(F)(F)F)ccc1Cl | -8.3%
Cc1ccc(C2(c3ccc(C)cc3)NC(=O)N(CC(N)=O)C2=O)cc1 | -4.6%
CC(C)c1cc(-c2nc(-c3ccccc3)no2)n[nH]1 | 4.0%
CCOC(=O)c1c(C)n(CC)c2ccc(OC(=O)c3ccc([N+](=O)[O-])cc3)cc12 | -24.5%
Cc1cc(NC(=O)c2ccccc2-c2ccccc2C(=O)O)no1 | 2.2%
Cc1cc(C(=O)OCC(=O)N2CCC(C)CC2)c2ccccc2n1 | 9.8%
CCN(CC)C(=O)CSc1nnc(-c2ccco2)o1 | -18.2%
O=C(NC1CCCC1)C(c1ccncc1)N(CCCN1CCOCC1)C(=O)c1ccc(-c2ccccc2)[nH]1 (centres undefined) | -9.0%
O=C(Nc1cccc(C(=O)O)c1)/C(=C\c1ccc(F)cc1)NC(=O)c1ccco1 | -3.0%
Cc1ccc(Cl)cc1NC(=O)Nc1nnc(N(C)Cc2ccccc2)s1 | 6.4%
O=C(Cn1cnc2ccccc21)Nc1ccc(F)c(F)c1 | -5.6%
CC1=CCC2CC1C2(C)C (centres undefined) | 9.7%
Cc1ccccc1-n1nnnc1SCc1cc(=O)n2ccsc2n1 | -6.0%
O=C(Nc1ccc(N2CCC(N3CCCCC3)CC2)c(C(=O)O)c1)c1ccccc1 | 5.5%
COc1ccccc1CNC(=O)C(CC(C)C)NC(=O)C1CCC(C)CC1 (centres undefined) | 2.2%
O=C(Cn1nc(-c2ccc(Cl)cc2)ccc1=O)NCc1ccc2c(c1)OCO2 | -1.3%
CC(C)=CCC/C(C)=C/CNC(=O)C[C@H]1C[C@H](C(=O)N2CCOCC2)[C@@]2(CCC3CCCC3)c3[nH]c4cc(CCC(=O)N(C)C)ccc4c3CCN2C1=O | -4.8%
Cc1c(CCC(=O)NC2CC2)c(=O)oc2cc(O)ccc12 | -19.1%
O=C(Cn1cccn1)N1CCCC(Nc2ccc(F)c(F)c2)C1 (centres undefined) | -7.0%
Cc1cc(N2CCN(C)CC2)nc2ccc(NC(=S)NC3CC3)cc12 | 0.7%
COc1ccc(N2C(=O)c3ccccc3C(C)(C)C2=O)cc1 | -10.1%

Reformatted field by field: entries from further up.
O=C(Cn1cnc2ccccc21)Nc1ccc(F)c(F)c1
  VDR inh: -5.6%

CC1=CCC2CC1C2(C)C (centres undefined)
  VDR inh: 9.7%

Cc1ccccc1-n1nnnc1SCc1cc(=O)n2ccsc2n1
  VDR inh: -6.0%

O=C(Nc1ccc(N2CCC(N3CCCCC3)CC2)c(C(=O)O)c1)c1ccccc1
  VDR inh: 5.5%
